NPYLR7 agonist = agonists of mosquito NPYLR7 receptor, primary screen, cell-based, Aedes aegypti, calcium fluorescence, mosquito biting behavior | 0.15% of 270,000 active | activation, % at 10 µM | HEK293T NPYLR7/Galpha15, GCaMP6s calcium fluorescence | Aedes aegypti neuropeptide Y-like receptor 7 (NPYLR7); in the data active means activation above about 40%;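 further: 0% = vehicle and 100% = reference agonist at the receptor; some compounds past the cut are filed as inactive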
NPYLR7 agonist max-min = also measured in NPYLR7 agonist; calls as there; activation, %; measured here: Max-Min RFU normalised activation; some inactives read as strong as hits;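 span of the calcium signal over five minutes; 0% = vehicle and 100% = native peptide agonist; compound fluorescence can raise it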
An asterisk follows results filed as active; & = joins results of further samples. Some of the compounds tested (hit frequency here may not be typical).

| Structure | NPYLR7 agonist | NPYLR7 agonist max-min |
| --- | --- | --- |
| CCCC(=O)N1CCC1(C)C(=O)Nc1ccccc1C(C)(C)C (stereo not given) | 1 | -2 |
| CC(C)NC(=O)c1ccc(NC(=O)OC(C)(C)C)cc1 | 2 | -1 |
| O=C(Nc1cccc(C2SCC(=O)N2c2ccc3c(c2)OCO3)c1)c1cccs1 (stereo not given) | 5 | 4 |
| NCCCNCCCCNCCCN | 4 | -50 |
| COc1ccc(N2CCC(NCCN(C)S(C)(=O)=O)CC2)cc1 | 22 | 10 |
| Cc1cccc(C(C)CNC(=O)N2CCC3(C2)OCCO3)c1 (stereo not given) | 6 | 6 |
| O=C(Nn1c(=O)oc2ccccc2c1=O)c1ccc(Br)o1 | 3 | 2 |
| O=c1oc2cc(O)ccc2cc1-c1csc(-c2cc3c(ccc4ccccc43)oc2=O)n1 | 1 | -2 |
| O=c1c2cnc3nc4ccccc4n3c2ccn1-c1ccc(Cl)c(C(F)(F)F)c1 | 2 | 0 |
| O=C(c1csc(CSc2nnc(-c3cccnc3)n2-c2cccc(C(F)(F)F)c2)n1)N1CCN(Cc2ccc3c(c2)OCO3)CC1 | -4 | 12 |
| O=C1C2C3C=CC(C3)C2C(=O)N1c1cccc(-c2nc3ccccc3c(=O)o2)c1 (stereo not given) | -4 | -10 |
| CCOc1ccc(-c2cc(C(=O)NCCc3ccc(Cl)cc3)c3ccccc3n2)cc1 | 20 | 18 |
| CCOC(=O)c1c(NC(=O)c2ccc(OCC(C)C)cc2)sc(C(N)=O)c1C | -7 | -6 |
| Cc1cc(C(=O)COC(=O)COc2ccc(Cl)cc2Cl)c(C)n1Cc1ccco1 | -2 | -3 |
| FC(F)OC(Cl)C(F)(F)F (stereo not given) | -12 | -22 |
| NC(=O)c1cc(NC(=O)N2CCCCCC2c2ccco2)ccc1F (stereo not given) | 6 | 4 |
| COC(=O)c1ccn(Cc2nc(-c3cccc(Cl)c3)oc2C)n1 | 4 | 0 |
| Cc1c(C)n2c3c(=O)n(CCN4CCOCC4)c(=O)n(C)c3nc2n1C(C)c1ccccc1 (stereo not given) | -6 | -10 |
| CCc1nc2n(n1)C(=O)C(C(c1ccccc1F)N1CCC(O)CC1)S2 (stereo not given) | 0 | -8 |
| COc1ccc(C(=O)Nc2c(C)nc3ccccn3c2=O)cc1 | 2 | 0 |
| CC(C)(Oc1ccc(CCNC(=O)c2ccc(Cl)cc2)cc1)C(=O)N1CCCC1c1ccncc1 (stereo not given) | 2 | -2 |
| Cc1cc(C)n(-c2cccc(C(=O)NCC3Cc4cc(F)cc(-c5cccnc5)c4O3)c2)n1 (stereo not given) | 12 | 8 |
| CC1ON=C(c2cccc(Cl)c2)N(Cc2ccccc2)C1=O (stereo not given) | 7 | 4 |
| CN(CCN1C(=O)CSC1c1ccccc1Cl)C(=O)Nc1ccc(C(F)(F)F)cc1 (stereo not given) | 24 | 23 |
| COc1ccc(C(=O)N(Cc2cc(NC(=O)NC(C)C)ccc2N(C)C)C(C)C(C)C)cc1 (stereo not given) | 6 | 10 |
| COc1cc(Cl)c(C(=O)N2CCOC(COc3cccc(C(F)(F)F)c3)C2)cc1OC (stereo not given) | 28 | 26 |
| Cc1ccc(-c2nnc(SCC(=O)c3ccc4c(c3)OCO4)n2C)cc1 | -1 | -4 |
| CCOC(=O)C1CCN(C(=O)c2ccc(OC)c([N+](=O)[O-])c2)CC1 | -4 | -3 |
| COCCNC(=O)C1COC2(CCCCC2)N1C(=O)c1ccccc1OC (stereo not given) | -4 | -4 |
| CCCn1cc(C(=O)Nc2nnc(C)s2)c2nn(-c3ccccc3)c(=O)c-2c1 | 14 | 11 |
| CCOc1ncccc1CNC(=O)Cc1ccc2c(c1)CCCC2 | -2 | -4 |
| COCC(=O)Nn1ccc2c(cnc3ncnn32)c1=O | 5 | 10 |
| Nc1nnc(SCc2nc3sc4c(c3c(=O)[nH]2)CCCC4)s1 | 5 | 1 |
| O=C(NCc1ccc(Cl)s1)NC1CC1c1ccccc1 (stereo not given) | 3 | 0 |
| CN(Cc1ccncn1)C(=O)CC1(Cc2ccccc2)C(=O)N(C)c2ccccc21 (stereo not given) | 12 | 5 |
| COC(=O)C1=NNC2C(=O)N(c3ccc(OC)cc3)C(=O)C12 (stereo not given) | 6 | 1 |
| O=C(c1ccco1)N1CCOc2c(O)cc(-c3nc4ccccc4s3)cc2C1 | -5 | -6 |
| CN1CCc2[nH]c3ccc(Br)cc3c2C1 | 5 | 3 |
| CCCCCCCCCCCC(=O)Nc1cccc(C2SCC(=O)N2c2ccc(OC)cc2)c1 (stereo not given) | 9 | 9 |
| O=C(Cc1ccc(F)cc1)N(Cc1cccnc1)c1nc2ccc(Cl)cc2s1 | 0 | 0 |

Additional structures:
The line under a structure holds: NPYLR7 agonist, NPYLR7 agonist max-min
CO[C@H]1CN(S(=O)(=O)c2ccccc2)[C@H]2Cc3c(oc4ccccc34)[C@@H]1C2
→ 14, 20
CCCNCC(=O)Nc1cc(-c2ccccc2)nn1-c1ccc(OC)cc1
→ 38, 40
COCC1(NC(=O)CC2CNCCO2)CCCC1 (stereo not given)
→ 5, 1
C=CCn1c(C)cc(C(=O)CSc2nnc(C3CC3)n2C2CC2)c1C
→ -8, -1
CON=C1C(=O)Nc2ccc([N+](=O)[O-])cc21
→ -1, -3
c1ccc(-c2noc(CN3CCCN(c4ncccn4)CC3)n2)nc1
→ 4&-6, 1&-8
COc1cc(CCC(=O)N2CCc3cc([N+](=O)[O-])ccc32)cc(OC)c1OC
→ 8, 12
CC(C)N(CC(N)=O)C(=O)c1ccccc1Nc1ccc(F)cc1
→ -3, -4
Fc1ccccc1CCn1ccnc1-c1cnc(N2CCCC2)nc1
→ 0, -7
COc1cc(C=C2N=C(c3ccc(F)cc3)OC2=O)cc(OC)c1
→ 6, 1
CCc1cccc2c(C(CC(=O)NC3CCN(Cc4ccccc4)CC3)c3ccc(Cl)cc3)c[nH]c12 (stereo not given)
→ 5, 5
CC(C)Nc1ncc(C(=O)NC2CC(=O)N(CCc3ccccc3)C2)cn1 (stereo not given)
→ 8, 3
Cc1cc(CS(=O)C(C)C(=O)NCc2cccs2)no1 (stereo not given)
→ 4, 2
Cc1cccc(CC(=O)NCCc2cc3ccc(C)c(C)c3[nH]c2=O)c1
→ 1, -2
S=c1nc2ncccn2n1CN1CCC(CCc2ccccc2)CC1
→ -1, -2
c1ccc(OCCCCn2nnc3ccccc32)cc1
→ 4, 4
CCOc1nc(-c2ccccc2F)n(-c2ccc(NC(=O)c3ccc(Cl)cc3Cl)cc2)n1
→ 11, 18
CCn1nc(C)c(-c2nc3c([nH]2)c(C)nn3-c2ccc(C)cc2)c1C
→ 4, 0
CCCN1CCc2[nH]c(=S)[nH]c(=O)c2C1
→ -7, -6
COc1ccc(CC2(CCC(=O)NCc3nc4cc(C(F)(F)F)ccc4n3C)CCC(=O)N2)cc1 (stereo not given)
→ 13, 5
COc1ncccc1CNC(=O)Cc1ccccc1Cl
→ -1, -5
Cc1c(C(=O)N2CCCCC2)cnc2c(-c3ccccc3F)cnn12
→ 20, 11
CC(NC(=O)c1cc(-c2ccccc2F)nc2cc(C(C)(C)C)nn12)c1ccccc1 (stereo not given)
→ -8, 3
CCCCc1nc(N2CCN(C(=O)Cc3cccs3)CC2)c2c(C)nn(-c3ccc(F)cc3)c2n1
→ 4, 3
CCN(Cc1ccc(Cl)c(Cl)c1)C(=O)c1cc(C(N)=O)c[nH]1
→ -2, -1
COC(=O)[C@@H]1C[C@@H](NC(=O)COc2ccccc2OC)CN1C
→ 5, 0
c1ccc(CNc2ncnc3[nH]ncc23)nc1
→ 8, 6
CCOC(=O)c1ccc(OC2CC3CCC(C2)N3C(=O)c2ccc(CSc3c(F)c(F)cc(F)c3F)cc2)cc1 (stereo not given)
→ 28, 10
COc1ccc(-c2nc3ccccn3c2NC(=O)c2cc(Cl)cc(Cl)c2)cc1
→ -2, 5
Cc1ccccc1C1CCCN1C(=O)c1cc(Cn2ccc3ccccc32)[nH]n1 (stereo not given)
→ 9, 0
Cc1cc(NC2CCCc3c2cnn3CCO)nc(C)n1 (stereo not given)
→ 5, 4
CCOc1ccc(CN2CCCn3cccc3C2c2cccc(Oc3ccccc3)c2)cc1 (stereo not given)
→ 10, 8
Cc1cccc(-c2nc(C)c(C(C)C)c(N3CCN(C(=O)COc4ccccc4)CC3)n2)c1
→ 4, 7
CC[C@H](C)C(=O)O[C@H]1CCC=C2C=C[C@H](C)[C@H](CC[C@@H]3C[C@@H](O)CC(=O)O3)[C@H]21
→ -2&5, -6&-40
CCN(C(=O)Nc1cccc(C(F)(F)F)c1)C(C)c1nc2ccccc2c(=O)n1-c1ccc(F)cc1 (stereo not given)
→ 5, 13
Cc1ccccc1Sc1ccc(C(=O)O)cc1
→ -4, -5
Cc1ccc(C)c(-c2ccc(CN(C)C)cn2)c1
→ -5, -6
CCCCN1CC(c2nc3ccccc3n2CCCCOc2ccccc2)CC1=O (stereo not given)
→ -4, -1
CCCCc1ccc(NC(=O)/C=C/c2cnn(C)c2C)cc1
→ -1, 3
Cn1c(=O)c2c(nc3n2CC(c2ccccc2)=NN3CCN2CCOCC2)n(C)c1=O
→ 6, 9
O=C(CCCc1ccccc1)Nc1ccnn1C1CCN(C2CSCCSC2)CC1
→ 20, 17
COCCCNC(=O)c1cc(-c2ccc(C)cc2)nc2c1c(C)nn2C1CCS(=O)(=O)C1 (stereo not given)
→ 3, 8
Cc1cccc(-n2c(CNC(=O)c3ccc(S(=O)(=O)N(C)C)cc3)nnc2SCC(=O)Nc2ccc(F)cc2)c1
→ -10, 1
CCCCN(CC(=O)N(CCc1ccc(OC)c(OC)c1)Cc1ccc(C)s1)C(=O)NC1CCCCC1
→ 2, 7
COc1cccc(Oc2cc(C(F)(F)F)nc(SCc3cccc(C#N)c3)n2)c1
→ 0, -1
CCCCn1c(N)c(N(CCOC)C(=O)COC(=O)c2ccc(Cl)s2)c(=O)[nH]c1=O
→ 7, 5
Cc1ccccc1OCC(O)CN(Cc1cccc(Cl)c1)CC1CC(c2ccccc2F)=NO1 (stereo not given)
→ -2, 6
CCOc1ccc(-c2ccc(=O)n(CCNS(=O)(=O)c3ccc(OC)cc3OC)n2)cc1
→ -2, -2
CCOC(=O)c1c(N=Cc2nc(-c3ccco3)oc2O)sc2c1CCC2
→ -2, -5
Brc1ccc(-c2nc(-c3ccccc3)no2)o1
→ 2, 0
NC(=O)[C@@H]1Cc2ccccc2CN1c1cc(Cl)nc(N)n1
→ 18, 14
C=CCn1c(=C(C#N)C(=O)N2CCCC2)sc(=Cc2cccs2)c1=O
→ 10, 11
Cc1ccc(N(C)CC(O)COCc2ccccc2F)c(C)c1 (stereo not given)
→ 6, 3
CCn1c(C2CC(=O)N(c3cc(Cl)ccc3OC)C2)nc2ccccc21 (stereo not given)
→ -1, 0
Cc1ccc(C(=O)NC(C(=O)NCc2ccco2)C2CCN(C(=O)C3CCCC3)CC2)cc1 (stereo not given)
→ 8, 8
COc1cc(C(C)=O)ccc1O
→ -4, -6
Cc1cccc(CC(=O)Nc2cc(C)nn2-c2nc(C)cc(=O)[nH]2)c1
→ 8, -1
N#CCSc1nc(NCC2CCCO2)c2ccccc2n1 (stereo not given)
→ 2, -1
COc1ccccc1NC(=O)c1ccc(NC(=O)C(C)N2CCC(C)CC2)cc1 (stereo not given)
→ -4, -5
O=C(Nc1ccc(Nc2cc(-n3cccn3)ncn2)cc1)C1CCCC1
→ -8, -11

A different layout for part of the listing above.
CCOc1ncccc1CNC(=O)Cc1ccc2c(c1)CCCC2
  NPYLR7 agonist: -2; NPYLR7 agonist max-min: -4
O=c1c2cnc3nc4ccccc4n3c2ccn1-c1ccc(Cl)c(C(F)(F)F)c1
  NPYLR7 agonist: 2; NPYLR7 agonist max-min: 0
COC(=O)[C@@H]1C[C@@H](NC(=O)COc2ccccc2OC)CN1C
  NPYLR7 agonist: 5; NPYLR7 agonist max-min: 0
Cc1cc(C)n(-c2cccc(C(=O)NCC3Cc4cc(F)cc(-c5cccnc5)c4O3)c2)n1 (stereo not given)
  NPYLR7 agonist: 12; NPYLR7 agonist max-min: 8

Other structures
The line under a structure holds: NPYLR7 agonist, NPYLR7 agonist max-min
CCOC(=O)NC1(C(F)(F)F)NC(=O)N(c2ccc(F)c(Cl)c2)C1=O (stereo not given)
→ -3, -6
O=[N+]([O-])c1ccc(Oc2ccc([N+](=O)[O-])cc2)cc1
→ 0, 4
O=c1c2ccccc2nnn1CO
→ -1, 1
Cc1ccccc1CNC(=O)CSc1n[nH]c(=O)n1Cc1ccccc1
→ 7, 12
Cc1ccc(CN(CCc2ccccc2)C(=O)CN(CC2CC2)S(=O)(=O)c2ccc(Cl)cc2)o1
→ 18, 14
Cc1nn(-c2ccccc2)cc1C(=O)N(CC(N)=O)Cc1ccccc1
→ 10, 9
O=C(CC1(O)C(=O)Nc2ccccc21)c1ccccn1 (stereo not given)
→ -1, 0
O=C(CCN1CCCCO1)NCCc1cnc[nH]1
→ 6, 3
Cc1ccc(C)c2c(C)c(C(=O)N3CCC4(CCCN(CC5CC5)C4)C3)[nH]c12 (stereo not given)
→ 17, 8
COc1ccc(C(=O)NCc2cccnc2N(C)Cc2ccccc2)o1
→ 7, 3
CN(C(=O)CCC(=O)Nc1nncs1)C1CCCCCC1
→ -4, -7
Cc1ccc(-n2nc(C(=O)N3CCOCC3)c(=O)n(Cc3cccc(Cl)c3)c2=O)cc1F
→ -2, 5
O=C(O)c1cc(Oc2ccccc2)ccc1O
→ -1, 0
O=S(=O)(Nc1ccccc1)c1ccc(-c2ccc(S(=O)(=O)Nc3ccccc3)cc2)cc1
→ 3, 1
CCCCc1ccc(CC(=O)N2CCC(CC(N)=O)CC2)cc1
→ 13, 10
O=C(NCCN1C(=O)CSC1=O)NCc1csc(C2CC2)n1
→ -6, -6
O=C(COc1ccccc1)N1CCC(n2c(=O)oc3ccc(F)cc32)CC1
→ 26, 23
C=CCn1c(SCC(=O)c2c(N)n(C)c(=O)n(C)c2=O)nc2sc3c(c2c1=O)CCCC3
→ -3, -5
CC1CCC2(CC1)NC(=O)N(NC(=O)CSc1ncn[nH]1)C2=O (stereo not given)
→ 2, 0

High-throughput results from PubChem.
